Source: PubChem (National Center for Advancing Translational Sciences (NCATS))
Menin-MLL FL inh: menin-MLL binding inhibition, fluorescein peptide; Fluorescence polarization, fluorescein-MLL peptide displacement from menin; FP activity change, % at 61.4 µM; 290,000 tested, under 10 active; AID 1766; inconclusive = falling polarisation curve, or a change in total fluorescence; inactive = total fluorescence flat and polarisation flat or rising; no compound was filed as active; the % refers to the polarisation; negative = inhibition;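 further: % of control where 0% means no effect; inhibitors lower the polarisation; unlabelled MLL peptide was the positive control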
TRPML1 blocker: inhibitors of human TRPML1 channel | activity change, negative = inhibition, % (no concentration beside the values) | AID 624415 | TRPML1-inducible cells, Ca2+ dye fluorescence, FDSS; stronger effect = lower value; inhibition of EC80 agonist-evoked calcium signal | actives 0.02% (n = 390,000) | Q9GZU1; in the data active means activity change below about -50%; inconclusive means about -30% to -50%; inactive means above about -30%;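 further: stimulus is agonist 54-4 at its EC80 concentration; on the % scale 0 is the no-effect control and ±100 the full control effect; compound concentration not given in the record; the text of the record puts the active cut at -80%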
Target sequence (Q9GZU1 whole entry, looked up): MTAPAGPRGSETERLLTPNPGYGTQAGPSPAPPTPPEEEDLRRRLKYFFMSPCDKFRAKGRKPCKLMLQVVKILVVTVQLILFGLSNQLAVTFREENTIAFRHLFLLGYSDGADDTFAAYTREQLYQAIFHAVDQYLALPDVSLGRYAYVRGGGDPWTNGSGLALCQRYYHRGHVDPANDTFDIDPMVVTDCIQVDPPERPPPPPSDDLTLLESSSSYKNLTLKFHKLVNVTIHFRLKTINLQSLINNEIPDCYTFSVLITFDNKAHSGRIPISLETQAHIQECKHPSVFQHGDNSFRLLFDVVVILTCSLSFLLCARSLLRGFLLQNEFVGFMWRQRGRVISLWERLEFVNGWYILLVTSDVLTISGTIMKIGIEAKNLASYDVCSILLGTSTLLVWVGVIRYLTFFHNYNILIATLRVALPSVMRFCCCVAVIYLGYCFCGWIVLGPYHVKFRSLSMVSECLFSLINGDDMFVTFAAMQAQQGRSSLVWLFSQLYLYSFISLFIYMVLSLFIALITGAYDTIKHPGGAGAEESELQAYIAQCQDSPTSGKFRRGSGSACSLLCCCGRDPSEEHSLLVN
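TRPML1-DL cells, Tet-induced overnight (~16 h, 37 °C) at 1,500 cells/well, were loaded with Ca8 no-wash dye plus quencher for 45-90 min at room temperature. Compounds were pinned during FDSS kinetic reading; agonist 54-4 at EC80 (4 uM final) then added.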
PINK1 expr mod: PINK1 expression modulation | PINK1 immunofluorescence, high-content cytometry, 24 h | Potency, µM (titrated, usually from 76.6 µM), for inactives: at the highest dose activation (PINK1 increase), usual class: activators | actives 0.2% (n = 410,000); active = well fitted activation curve with a large enough effect; inconclusive = small, poorly fitted or top-dose-only effect; inactive = flat fitted curve, though single readings scatter; cell line not stated here;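 further: potency means the concentration at half of the fitted maximal effect; % of control where 0% means no effect; nearly all actives have a fitted effect of over 65% in size; a mitochondrial uncoupler was the plate control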
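PINK1 protein, normally rapidly degraded, was detected by immunofluorescence after 24 hour compound treatment of a stable cell line. Titration data (5 concentrations) came from laser-scanning cytometry, with CCCP-treated wells as controls.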
Sfp PPTase inh: blocks B. subtilis Sfp PPTase activity | Q9F4F7 | Biochemical Sfp PPTase activity, qHTS | Potency, µM, for the others: max response, negative = inhibition, most hits filed as inhibitors | actives 3.5% (n = 310,000); active means well fitted inhibition curve with a large enough effect; inconclusive means small, poorly fitted or top-dose-only effect, or another doubt; inactive means no such curve, though single readings can be large or run the other way;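 further: the enzyme is Sfp with the accession as filed and its product quenches rhodamine fluorescence; potency means the concentration at half of the fitted maximal effect; 0% = enzyme reaction without inhibitor and -100% = no enzyme wells; top concentration of the series not given in the record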
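Buffer: 50 mM Hepes-Na pH 7.6, 10 mM MgCl2, 0.01% Nonidet P-40, 0.01% BSA. Enzyme 15 nM, pre-exposed to compound 15 min; substrates then added and fluorescence change tracked over 30 min.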
TRPML1 ag: agonists of human TRPML1 channel. Q9GZU1. TRPML1-expressing cells, Ca2+ dye fluorescence, FDSS; host cell line not named in the record; reference of the full effect not given here. activation, % (no concentration beside the values). actives 0.12% (n = 410,000); in the data active = activation above about 50%; inconclusive = about 30% to 50%; inactive = below about 30%; further: 0% is about no effect; the text of the record puts the active cut at 80%
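Cells: TRPML1-DL, 1X Tet inducer, ~16 h at 37 degrees C/5% CO2. Dye: ABD Ca8 no-wash + quencher, 45-90 min RT. Read: 10 s baseline, compound add, 110 s agonist phase; 54-4 EC80 (4uM final), 110 s antagonist phase.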
TRPV1 PAM: enhances activation of the human vanilloid receptor TRPV1; Q8NER1; TRPV1-expressing cells, Fluo-8 calcium influx, capsaicin EC20 potentiation; host cell line not named in the record; control for the full effect not named in the record; potentiation, % at 8.33 µM; actives 0.02% (n = 320,000); AID 540277; active means potentiation above 80%; inconclusive means 30% to 80%; inactive means below 30%; further: 0% is about no effect
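TRPV1-expressing cells were cultured overnight at 35.5C and loaded with Fluo-8 calcium dye for 40 to 90 min at room temperature. After a 10 s baseline, compound was added and calcium influx was read kinetically for 3 min (ex 480/em 520 nm).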
ClpP mod: qHTS Assay for Activators of ClpP. ATP-dependent Clp protease proteolytic subunit (Bacillus subtilis (strain 168)), P80244. purified B. subtilis ClpP, FRET peptide cleavage, 20 min. Potency, µM (series often up to 57.5 µM), without a hit: at the top dose activity change, negative = active. actives 1.9% (n = 340,000). AID 651965, 2013; active = well fitted falling curve with a large enough effect; inconclusive = small, poorly fitted or top-dose-only effect; inactive = no such curve, though single readings can be large or run the other way; further: potency means the concentration at half of the fitted maximal effect; the source files actives as falling curves though it sought activators and does not explain the sign; nearly all actives have a fitted effect of over 65% in size; many hits overshoot -100%
Target sequence (P80244 whole entry, looked up): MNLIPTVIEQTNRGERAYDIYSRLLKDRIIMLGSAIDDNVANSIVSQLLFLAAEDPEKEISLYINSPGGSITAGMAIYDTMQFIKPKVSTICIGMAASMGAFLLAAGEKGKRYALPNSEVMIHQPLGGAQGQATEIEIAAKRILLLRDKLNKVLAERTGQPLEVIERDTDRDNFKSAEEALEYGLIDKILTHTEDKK
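FRET quenching reversal measured ClpP activation: 10 microg/mL B. subtilis ClpP at pH 8 with the FRET-FV decapeptide, read at 430 nm after 320 nm excitation. The 20-min minus 0-min signal was scaled between DMSO/no-enzyme wells and ADEP (5.8 microM final).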
The depositor's hits bear a star; ? = inconclusive; . = not tested or not shown; & = joins results of further samples; [ ] = dose if it differs, or a comment.

SMILES	Menin-MLL FL inh	TRPML1 blocker	PINK1 expr mod	Sfp PPTase inh	TRPML1 ag	TRPV1 PAM	ClpP mod
COc1ccc2nc(N=Nc3ccc(N(C)C)cc3)sc2c1	2.0	-19	-1.6%	-1%	-0.1	5	1.8%
Cc1ccc([C@H]2C[C@@H](n3cc(C4CC4)nn3)[C@H](O)CN2C(=O)C2CCCCC2)cc1	.	0	-1.4%	.	-0.4	.	1.0%
CC(C)c1ccc2[nH]c3c(c2c1)CCC/C3=N\NC(=O)c1ccncc1	-0.9	9	3.7%	10%	-0.3	-1	0.0%
CCN(CC)C(=O)c1sc(NC(=O)C(C)C)c(C#N)c1C	3.8	0	0.8%	9%	0.1	16	.
O=C(c1cccs1)c1ccccc1Cc1cccs1	.	27	5.3%	.	6.4	.	-0.1%
CC(CN1CCCC1)OC(=O)c1ccc(Br)cc1 (stereo not given)	-4.9	14	0.3%	0%	1.2	0	1.6%
CC1CC(C)CN(CCCNC(=O)c2csc3c2CCCCC3)C1 (stereo not given)	-0.6	5	-0.2%	5%	-0.4	-3	0.5%
CCc1cccc(CC)c1NC(=S)NC(C)c1ccccc1 (stereo not given)	4.0	8	1.5%	10%	4.0	-12	1.7%
CCC1CCCCN1CCCNC(=O)CN1C(=O)COc2ccccc21 (stereo not given)	-0.2	16	0.2%	23%	0.4	-2	0.1%
OCC[C@H]1C[C@@H](O)[C@H](O)[C@@]2(CCc3ccccc3O2)O1	.	-8	1.4%	.	-0.1	?	0.2%
CC1CN(C(=O)c2ccc(N3CCCCC3)c([N+](=O)[O-])c2)CC(C)O1 (stereo not given)	2.9	6	-1.0%	1%	0.4	-10	-2.2%
COc1ccc(C2=C(SC)CC2=NC(C)(C)C)cc1	20	16	0.6%	-8%	-0.7	?	1.2%
COc1ccc2cc(C#N)c(SCC(=O)Nc3nonc3C)nc2c1	11	-8	?	-2%	2.4	-14	.
O=C(NC1CCCC1)C(=O)N(Cc1cccnc1)C(C(=O)NCc1ccco1)c1ccccc1F (stereo not given)	-2.9	30	1.8%	7%	-0.3	-1	.
CCCN1/C(=C2/SC(=S)N(CC)C2=O)C=Cc2ccccc21	19	-1	0.2%	?	1.5	-1	0.5%
COc1ccc(-c2csc3ncn(-c4ccccc4)c(=O)c23)cc1OC	4.3	36	0.6%	-4%	1.6	-13	.
COC(=O)CC1SC(=O)NC1=Nc1ccc(C)cc1 (stereo not given)	1.6	41	.	6%	0.1	-11	0.9%
Cc1cccc(C(=O)N2CCC(C)(C(=O)NS(=O)(=O)C3CC3)C2)c1C (stereo not given)	.	.	2.3%	.	-0.5	.	-0.5%
CCOC(=O)Nc1nc(-c2ccccc2)c(C(=O)c2ccc(Cl)cc2)s1	1.3	15	6.8%	12%	2.0	-7	-0.2%
CSc1oc(-c2ccco2)nc1S(=O)(=O)c1ccc(C)cc1	-0.8	-8	-0.5%	-13%	1.1	8	.
Cc1onc(-c2ccccc2)c1C(=O)NCc1cccs1	0.7	-12	1.9%	7%	0.7	-3	-3.9%
O=C(O)CSCCC(=O)Nc1ccc(F)cc1	7.2	-8	12%[38.3 µM]	6%	-0.5	7	1.3%
CCCCn1c(CNC(=O)CCC)nc2ccccc21	3.6	6	-2.0%	19%	0.4	3	-2.7%
CC1CCN(C(=O)COC(=O)c2ccc3c(c2)C(=O)N(Cc2ccco2)C3=O)CC1	.	-5	-0.2%	.	2.0	21	.
COc1ccc(Cc2noc(CN(C)CCc3ccccc3)n2)cc1OC	-1.6	10	3.3%	-8%	1.8	12	.
O=C(NCc1ccc(Cl)cc1)c1ccc2oc(=O)n(Cc3ccccc3)c2c1	.	15	0.5%	.	1.8	.	-2.2%
Cc1ccccc1NC(=O)Nc1nnc(N(C)Cc2ccccc2)s1	.	20	0.4%	.	0.5	.	2.5%
O=C(COc1ccc(-c2nnco2)cc1)Nc1ccc(C(F)(F)F)cc1	.	-6	4.2%	.	0.7	-18	.
CCc1noc(C)c1C(=O)N(CC)CC(=O)Nc1ccccc1C(F)(F)F	.	-1	1.6%	.	0.0	-2	1.6%
COc1ccc(C(C)C)cc1S(=O)(=O)NCCCn1ccnc1	2.9	-10	1.0%	25%	0.0	2	.
Cc1ccc(NC(=O)C2CC(O)CN2C(=O)OCc2ccccc2)c(C)c1 (stereo not given)	0.0	-13	0.9%	22%	-0.3	18	.
Cc1ccc(-c2nnc(N3CCCCC3)c3ccccc23)cc1	1.4	7	26%	-9%	4.7	-15	1.0%
O=C(Nc1ccc([N+](=O)[O-])cc1Cl)c1cccc([N+](=O)[O-])c1	.	25	2.8%	.	-1.4	.	2.1%
CC(=O)Nc1cccc(OC(=O)c2ccoc2C)c1	3.3	8	4.2%	-30%	1.2	13	-0.7%
Cc1ccc(S(=O)(=O)Nc2c(C)nn(C)c2C)cc1	1.5	6	-1.2%[38.3 µM]	17%	-0.5	-3	0.4%
CC1=Nc2ccccc2NC(=O)C1Sc1nnc(C)s1 (stereo not given)	4.7	-15	-1.1%	3%	-1.2	2	0.5%
Cc1ccc(NC(=O)c2ccc(NCc3ccco3)c([N+](=O)[O-])c2)cc1Cl	-3.3	21	?	-21%	0.2	10	-0.8%
CCCN(CC(=O)Nc1cc(C)on1)S(=O)(=O)c1cccc(C(F)(F)F)c1	1.0	0	6.7%	2%	-0.9	-7	.
Cc1ccsc1C(=O)NNC(=O)COc1ccccc1Cl	.	20	-1.7%	.	-0.7	13	.
C=CCc1ccc(OCCCCN2CC(C)OC(C)C2)c(OC)c1 (stereo not given)	2.8	-7	-2.2%	14%	0.3	20	-0.3%
CCc1cccc(NC(=O)CC(c2ccc(OC)cc2)N2Cc3ccccc3C2=O)c1 (stereo not given)	.	-12	1.4%	.	1.0	.	0.0%
Cc1c(C(=O)Nc2ccccc2Cl)sc2ncnc(N(C)C3CCCCC3)c12	.	-12	0.3%	.	1.1	.	-11%
C=CCC(C=C)S(=O)(=O)c1ccc(C)cc1 (stereo not given)	-2.2	12	-4.4%	17%	2.0	-37	-1.5%
CCc1ccc(C2=NN(CCC(=O)NCC3CCCO3)C(=O)CC2)cc1 (stereo not given)	.	24	-0.8%	15%	-0.7	-7	-1.8%
COc1ccc(CCNC(=O)c2cccc([N+](=O)[O-])c2)cc1OC	.	-13	4.8%	.	0.1	.	.

Random excerpt: 4 records from the list, in no set order.
SMILES	Menin-MLL FL inh	TRPML1 blocker	PINK1 expr mod	Sfp PPTase inh	TRPML1 ag	TRPV1 PAM	ClpP mod
CCCN1/C(=C2/SC(=S)N(CC)C2=O)C=Cc2ccccc21	19	-1	0.2%	?	1.5	-1	0.5%
O=C(NCc1ccc(Cl)cc1)c1ccc2oc(=O)n(Cc3ccccc3)c2c1	.	15	0.5%	.	1.8	.	-2.2%
CCOC(=O)Nc1nc(-c2ccccc2)c(C(=O)c2ccc(Cl)cc2)s1	1.3	15	6.8%	12%	2.0	-7	-0.2%
CC1CC(C)CN(CCCNC(=O)c2csc3c2CCCCC3)C1 (stereo not given)	-0.6	5	-0.2%	5%	-0.4	-3	0.5%

Continued:
SMILES	Menin-MLL FL inh	TRPML1 blocker	PINK1 expr mod	Sfp PPTase inh	TRPML1 ag	TRPV1 PAM	ClpP mod
COc1ccc(NC(=O)COC(=O)CN2C(=O)C3CC=CCC3C2=O)c([N+](=O)[O-])c1 (stereo not given)	.	16	-0.9%	.	2.1	.	-8.0%
C=CCN=Cc1c(C)[nH]n(-c2ccccc2)c1=O	-1.6	11	-4.9%	22%	-0.3	-8	-3.0%
CCN(c1ccccc1)S(=O)(=O)c1nnc(NC(=O)COc2cccc(C)c2)s1	.	-17	0.8%	.	0.7	.	1.1%
O=C(Nc1cc([N+](=O)[O-])ccc1C(=O)Nc1cccnc1)c1ccccc1	.	-1	2.2%	16%	-0.3	-3	-0.9%
COc1cc(NC(=O)c2ccc3c(c2)OCO3)c2ncccc2c1	5.5	4	8.5%	14%	-0.1	-1	6.3%
O=C(CCC1CCN(C(=O)c2ccco2)CC1)NCc1ccc(F)cc1	2.0	-8	0.0%	7%	-0.5	13	-0.8%
Cc1cc(=O)[nH]c(N/N=C/C2=C(N3CCOCC3)C(=C\c3ccc(Cl)cc3)/CC2)n1	?	1	?	40µM*	1.3	-2	0.4%
O=C(OC(c1ccccc1)c1nccc2ccccc12)c1cccc([N+](=O)[O-])c1 (stereo not given)	-1.3	38	0.3%	2%	4.6	25	0.1%
CCc1cccc(NC(=O)Cn2c(=O)n3nc(-c4cccc(F)c4)nc3c3ccccc32)c1	.	47	5.3%	.	0.9	.	-3.0%
O=C(NNC(=O)c1ccc2ccccc2c1O)c1ccccc1Cl	1.7	25	1.6%	12%	0.4	12	1.0%
CCCn1c(NCc2ccc(N(C)C)cc2)nc2ccccc21	0.2	-10	1.9%	-9%	-0.7	4	-0.2%
Nc1cc(N)nc(SCC(=O)N2CCN(C(=O)c3ccco3)CC2)n1	0.7	4	?	11%	3.9	3	0.5%
CC[C@H](C)C(=O)O[C@H]1C[C@@H](C)C=C2C=C[C@H](C)[C@H](CC[C@@H]3C[C@@H](O)CC(=O)O3)[C@H]21	3.0&5.9	-12&0	?	8%&-11%	-0.9&-1.0	-15&-8	0.6%&0.1%
CC[C@H](C)[C@@H](C(=O)N1CCNCC1)n1cc([C@@H](N)Cc2ccc(O)cc2)nn1	0.8	17	-0.3%	2%	-0.3	1	0.0%
COCCNC(=S)N(Cc1cccs1)Cc1cc2cccc(C)c2[nH]c1=O	3.4	-5	-1.1%	?	-0.5	0	.
Cc1cc(C)c(OCC(=O)Nc2cccc(O)c2)cc1C	0.1	10	3.5%	7%	0.6	-6	-1.9%
N#CN1C2CCC1CC(O)(c1ccccc1)C2 (stereo not given)	.	.	0.4%	.	-0.6	.	-2.4%
CC(C)N(Cc1ccccc1)C(=O)c1ccc2nsnc2c1	0.3	15	1.4%	1%	0.2	-20	.
Cc1ccc(CCNC(=O)c2cccc(N3CCCC3=O)c2)cc1	.	12	-0.9%	9%	-1.4	18	-1.0%
